Bioassay records: PubChem BioAssay, Fisher Drug Discovery Resource Center
NPYLR7 agonist = activates Aedes aegypti NPYLR7 receptor. AID 1259423. actives 0.15% (n = 270,000). HEK293T NPYLR7/Galpha15, GCaMP6s calcium fluorescence. activation, % at 10 µM; in the data active = activation above about 40%;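 note: 0% = vehicle and 100% = reference agonist at the receptor; some compounds past the cut are filed as inactive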
NPYLR7 agonist max-min = second read-out of NPYLR7 agonist, no call of its own (marks repeat the call); activation, %; measured here: Max-Min RFU normalised activation; some inactives read as strong as hits;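 span of the calcium signal over five minutes; 0% = vehicle and 100% = native peptide agonist; compound fluorescence can raise it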
Starred values were filed as active, the others as inactive; & = joins results of further samples. These rows are one share of the data; rates above refer to the full screens.

SMILES	NPYLR7 agonist	NPYLR7 agonist max-min
CCc1ccc[n+](C2=C(c3c(CC)[nH]n(-c4cccc(Cl)c4)c3=O)C(=O)N(C(C)C)C2=O)c1	12	12
CCCCN(CC(=O)N1c2ccccc2-n2cccc2C1c1ccc(OC)cc1)C(=O)Nc1ccc(F)c(F)c1 (centres undefined)	-8	-4
CCc1c(C)nn(-c2ccc(C(=O)NCCCc3ccccc3)cc2)c1C	-7	-8
CC(C)Cc1nc(N2CCN(C(=O)COc3ccccc3)CC2)c2c(-c3cccc(C(F)(F)F)c3)noc2n1	15	7
CC(C)C(NS(=O)(=O)c1ccc2c(c1)OCCCO2)C(=O)Nc1ccc2c(c1)CCC2 (centres undefined)	4	0
C(=NNc1nncc2ccccc12)c1ccc2c(c1)OCCO2	0	-2
Cc1cc2c(cc1-n1cnnc1)OCO2	2	0
CCCc1ccc(S(=O)(=O)N2CC(C)Oc3ncccc32)cc1 (centres undefined)	4	3
Cc1c(Br)c([N+](=O)[O-])nn1CC(=O)NCCC1=CCCCC1	-11	-15
CC(C(=O)c1ccc(Cl)cc1)N(C(=O)c1ccc(Cl)cc1Cl)N1C(=O)CCC1=O (centres undefined)	-16	-21
CCOC(=O)c1ccc2c(c1)nc(SCc1cc(C(F)(F)F)ccc1F)n2Cc1ccccc1	3	3
CCn1c(C(O)(c2ccccc2)c2ccccc2)nc2ccccc21	-6	-9
CC(CNC(=O)c1cc(F)ccc1F)CN1CCN(C)CC1 (centres undefined)	0&13	-1&12
COCCN(CCC(=O)Nc1ccccc1)c1nc(-c2ccco2)nc2ccccc12	-3	6
Cc1nccn1CCC(=O)N1CCCN(CC2CC2)C(C(C)C)C1 (centres undefined)	1	-6
O=C(NC1CCC[C@H]1OCc1ccccc1)c1cncn1-c1ccc(-c2ccc(F)c(F)c2)cc1 (some centres undefined)	22	25
C=CCN(CC(O)COc1ccccc1C)CC1CC(c2ccc(Cl)cc2)=NO1 (centres undefined)	-2	-1
CN(CCc1cccs1)C(=O)Nc1nnc(C2CC2)s1	-23	-23
COc1ccc(O)c(C=NN2CCOCC2)c1	18	6
CCCCC(O)CN(Cc1c(-c2ccccc2)nn(C)c1Oc1ccccc1Cl)CC1CC1 (centres undefined)	-6	-2
COC(=O)CC1SCCNC1=O (centres undefined)	1	-3
CN1CC(=O)N2C[C@@H](NC(=O)c3ccc4nccnc4c3)C[C@H]2C1=O	-4	-6
CSCCC(C)N1CCC(Oc2ccc(C(=O)NC3CCCC3)cc2Cl)CC1 (centres undefined)	10	3
CNC(=O)[C@H]1CN(C(=O)CC2CCCC2)[C@]2(C)C(=O)N(CC(=O)N(C)C)c3ccccc3[C@H]12	4	10
O=S1(=O)CC2N=C(Nc3ccc(Br)cc3)SC2C1 (centres undefined)	-1	-3

Additional records:
SMILES	NPYLR7 agonist	NPYLR7 agonist max-min
COc1ccc(CN2CCN(Cc3ccc4nonc4c3)CC2CCO)c(F)c1 (centres undefined)	-9	-6
CC1CC(C#N)(C(=O)NCC(C)Oc2ccc(Cl)cc2)C1 (centres undefined)	2	0
OCC1(CCOc2ccccc2)CCN(c2ncnc3sccc23)CC1	4	-1
CCOC(=O)N1CCN(C(c2ccncc2)c2c(O)cc(C)n(CC)c2=O)CC1 (centres undefined)	10	4
COc1ccc(-n2cccn2)c(CN(C)Cc2ncc[nH]2)c1	-1	-3
COc1ccc(NC(=O)C(C2CCCC2)N2CCN(C(=O)c3ccc(Cl)c(Cl)c3)CC2)cc1 (centres undefined)	-1	3
Cc1c(C(=O)NCCOC(C)C)sc2ncnc(N3CCCCCCC3)c12	24	9
O=C(c1ccsc1)N1CCN(CCNC(=O)C23CC4CC(CC(C4)C2)C3)CC1	-3	-5
Cc1cc(C)nc(SCc2cc(=O)c(OC(=O)c3cccc4ccccc34)co2)n1	-14	-7
c1cncc(-c2noc(C3CCCN(Cc4cc5n(n4)CCNC5)C3)n2)c1 (centres undefined)	3	0
NC(=O)C1CCCN1S(=O)(=O)c1ccc(Cl)c(Cl)c1 (centres undefined)	6	6
Nc1nnc(SCc2cc3c(cc2Br)OCO3)s1	3	9
Cc1ccc2nc(SCc3ccc(Cl)cc3)nc(=O)n2c1	13	8
CC(C(=O)NCc1ccccc1F)N1CCN(c2nc3ccccc3s2)CC1 (centres undefined)	11	8
COc1cccc(-c2nc3c(NCc4ccncc4)nccc3[nH]2)c1F	-7	-13
CCC(C)NC(=O)CN1CN(c2ccccc2)C2(CCN(C(=O)Nc3ccccc3C(F)(F)F)CC2)C1=O (centres undefined)	-5	9
O=C(C1Cc2ccccc2C1)N1CCC(n2cc(C3CCCC3)nn2)CC1	7	6
CN(CCN(C)[C@@H]1c2ccccc2C2(CCNCC2)[C@H]1O)C1CCCC1	3	6
Cc1cccc(Cn2c(N3CCC(C)CC3)nc3c2c(=O)n(C)c(=O)n3C)c1	-3	-2
Cc1cccc(Cn2c(=O)c3c(nc4n3CC(C)CN4CCc3ccccc3)n(C)c2=O)c1 (centres undefined)	4	4
O=C1N=c2ccc(Br)cc2=C1c1sc(=S)n(-c2ccccc2Cl)c1O	-8	-16
Cc1ccc(S(=O)(=O)N2CCN(CCCS(=O)(=O)O)CC2)cc1C	3	0
COc1cc(OC)c(-c2nccn2-c2ccc3n[nH]nc3c2)cc1OC	1	1
NC1=C(c2ccccc2)S(=O)(=O)c2cc(Oc3ccccc3)ccc21	7	5
O=C(C1CCCCC1)N1CCCC1c1nn2c(C3CC3)nnc2s1 (centres undefined)	2	-4

Additional results.
SMILES	NPYLR7 agonist	NPYLR7 agonist max-min
O=C(CCCCC(=O)NN1C(=O)C2C3C=CC(C3)C2C1=O)NN1C(=O)C2C3C=CC(C3)C2C1=O (centres undefined)	6	5
CCCc1nc(C)cc(N2CCN(c3ncccc3C(N)=O)CC2)n1	24	22
CCN(CC)S(=O)(=O)c1ccc2c(c1)nc(SCc1ccc(NC(C)=O)cc1)n2Cc1ccco1	-2	-5
CN(C)CCN(C1CCCCC1)S(=O)(=O)c1ccc2c(c1)OCCO2	16	14
CC1=C(C(=O)N(Cc2cccnc2)CC2CCN(Cc3ccccc3C)CC2)OCCO1	6	4
Clc1ccc2c(c1)CCCN2Cc1nnnn1C1CC1	-3	-7
O=C(c1ccncc1)N1CCCC(CCc2ccccc2C(F)(F)F)C1 (centres undefined)	-5	-5
CCCCNC(=O)C1(C)CCCCN1C(=O)c1cc(OC)ccc1Br (centres undefined)	5	2
COc1cccc2c1OCC(NCCCOc1cccnc1)C2 (centres undefined)	-2	-5
CNc1cc(-c2ccc(C)cc2)ncn1	2	2
Cc1cccn2c(=O)cc(CN3CCc4ccc(F)cc43)nc12	-1	-3
O=C(Nc1ccccc1OC1CCCC1)c1ccc2n[nH]c(=O)n2c1	0	-1
O=S(=O)(NCC1CCC(c2ccccc2)CC1)C1CCOCC1 (centres undefined)	-1	-6
CC1Cn2c(nnc2C23CC4CC(CC(C4)C2)C3)S1 (centres undefined)	-4	-3
COc1ccc(C(=O)NC2CC2)c(OC2CCN(Cc3cnc(SC)nc3)CC2)c1	12	7
C=c1onc(-c2ccccc2)c1=c1[nH]/c(=C\c2cccs2)c(=O)o1	1	0
CN(C)c1ccc(CN(CC(=O)N2CCOCC2)CC2CC2)cc1	9	5
O=C(c1cn2c(n1)CNCC2)N1C[C@H]2C[C@H](C1)[C@@H]1CCCC(=O)N1C2	-1	-4
COCOc1ccc(-c2ncc(OCCN3CCCC3=O)nc2NC(=O)c2c(C)noc2C)cc1	7	-1
CC(C)CCN(Cc1cc(F)cc(F)c1)Cc1cccn1Cc1ccc(C(F)(F)F)cc1	4	8
O=S(=O)(Nc1ccc(Cl)cc1F)c1ccc(Br)cc1Cl	2	1
COc1ccc(C(=O)N2CCCC(C(=O)c3ccc(-c4ccccc4)c(F)c3)C2)cc1OC (centres undefined)	17&2	4&0
Nc1cnc2ncc(N)cc2c1	-3	0
Cc1ccc(CNC(=O)c2c(O)nc3sccn3c2=O)cc1	-1	5
C1=CC2C(C1)C1CC2C2N=NN(c3ccccc3)C12 (centres undefined)	2	-2

(continued)
SMILES	NPYLR7 agonist	NPYLR7 agonist max-min
COc1ccc(CN2CCN(c3ccc(F)cc3)C(=O)C2C)cc1 (centres undefined)	15	17
O=C(NCCO)c1c(O)c2c([nH]c1=O)CCCC2	5	4
CCCCN(CCC(=O)N1CCc2ccccc2C1)c1nc(Cc2ccc(C)cc2)ns1	15	18
C=CCOCC(O)CN1CCC(=O)N(CC#CCC)Cc2ccccc21 (centres undefined)	2	4
C1=C(CSc2nccs2)N2CCCN=C2S1	8	5
CCCn1c(SCc2ccc3c(c2)OCO3)n[nH]c1=O	3	2
COc1cccc(CC(=O)N(CC(=O)O)[C@@H]2C[C@@H]3CO[C@H](c4ccccc4)C[C@@H]3C2)c1	29	28
O=C(CC1Cc2ccccc2C1)NC(c1ccc(F)cc1)c1ccc(SCc2ccccc2)cc1 (centres undefined)	-3	-5
CCC(C)NC(=O)C(NC(=O)c1ccccc1Cl)C1CCN(C(=O)c2ccco2)CC1 (centres undefined)	1	2
CCCCc1nc(CN2CCOC(Cn3cncn3)C2)cs1 (centres undefined)	-3	-6
COc1nn(C)cc1C(=O)NC1CCCC1	2	4
O=c1c(N=Nc2ccccc2O)c(-c2ccccc2)[nH]n1-c1ccc([N+](=O)[O-])cc1	-1	-8
CCN(CC)C1CCN(Cc2cccc(C(=O)Nc3nccn3C)c2)C1 (centres undefined)	-4	-8
CC(=O)Nc1nc([N+](=O)[O-])c(SCC(=O)O)s1	6	3
CC1CCC2(CC1)NC(=O)N(NC(=O)c1cccs1)C2=O (centres undefined)	2	13
COc1ccc(NC(=O)N(CC(=O)N(CCc2ccc(OC)c(OC)c2)Cc2cccs2)C(C)C)c(OC)c1	9	12
CCc1nc2n(n1)C(=O)C(C(c1cccc(Cl)c1)N1CCOCC1)S2 (centres undefined)	-3	-10
Cc1nn(CCOC(=O)c2ccccc2)c2c1P(=S)(N1CCCC1)OC(c1ccccc1)=N2 (centres undefined)	-3	-6
CCCOc1ccc(-c2cccc(NS(=O)(=O)c3ccc([N+](=O)[O-])cc3)c2)nn1	-7	-5
CCCn1nc(NC(=O)c2cccc(CN3CC[C@H](O)C3)c2)cc1C	-2	-6
Cc1ccc2c(-c3cc4c(n(CC5CC5)c3=O)CCN(C(=O)c3ccoc3)C4)cccc2n1	-3	-6
O=C(CC(NC(=O)c1ccccc1Cl)c1ccccc1)NC1=NCCS1 (centres undefined)	0	0
CCn1nc(C(=O)NNC(=O)c2ccccc2Cc2ccccc2)c2ccccc2c1=O	-1	19
O=C(CNCCN1CCCC1)N(Cc1ccccc1)Cc1cccs1	-14	-21
Cc1noc(CN(C)C(=O)c2cccnc2N(C)C2CCCCC2)n1	16	12

Looked up above:
O=C(NCCO)c1c(O)c2c([nH]c1=O)CCCC2 | NPYLR7 agonist max-min = 4
CCC(C)NC(=O)C(NC(=O)c1ccccc1Cl)C1CCN(C(=O)c2ccco2)CC1 (centres undefined) | NPYLR7 agonist = 1
COc1cccc(CC(=O)N(CC(=O)O)[C@@H]2C[C@@H]3CO[C@H](c4ccccc4)C[C@@H]3C2)c1 | NPYLR7 agonist = 29
CC1CCC2(CC1)NC(=O)N(NC(=O)c1cccs1)C2=O (centres undefined) | NPYLR7 agonist max-min = 13
CCCCc1nc(CN2CCOC(Cn3cncn3)C2)cs1 (centres undefined) | NPYLR7 agonist = -3
O=C(CC1Cc2ccccc2C1)NC(c1ccc(F)cc1)c1ccc(SCc2ccccc2)cc1 (centres undefined) | NPYLR7 agonist max-min = -5

Next part.
SMILES	NPYLR7 agonist	NPYLR7 agonist max-min
Cc1cnc(Cn2cnc(-c3ccccc3)c2CCn2nc(C)cc2C)cn1	2	0
O=S(=O)(Nc1ccc(OC(F)F)c(Cl)c1)c1ccccc1	6	5
CC(=NN1CCN(C)CC1)C1C(=O)c2ccccc2C1=O	3	5
COc1ccc(C2CC(=O)C3C(=Nc4ccccc4NC3c3ccc(N(C)C)cc3)C2)cc1OC (centres undefined)	-3	-7
COc1cccc(-c2cc(C(=O)N3CCN(C(=O)c4ccccc4Br)CC3)c(C)n2-c2ccccc2F)c1	-4	0
COCC1(C(=O)NCc2cc(-c3ccccc3Cl)on2)CCC1	-6	-12
O=C(Nc1ccc(C(F)(F)F)cc1)N1CCSC1c1cccc(Oc2ccccc2)c1 (centres undefined)	0	2

Gathered by group, the entries above containing an NH in an aromatic ring (9)
SMILES	NPYLR7 agonist	NPYLR7 agonist max-min
CCc1ccc[n+](C2=C(c3c(CC)[nH]n(-c4cccc(Cl)c4)c3=O)C(=O)N(C(C)C)C2=O)c1	12	12
COc1ccc(-n2cccn2)c(CN(C)Cc2ncc[nH]2)c1	-1	-3
COc1cccc(-c2nc3c(NCc4ccncc4)nccc3[nH]2)c1F	-7	-13
COc1cc(OC)c(-c2nccn2-c2ccc3n[nH]nc3c2)cc1OC	1	1
O=C(Nc1ccccc1OC1CCCC1)c1ccc2n[nH]c(=O)n2c1	0	-1
C=c1onc(-c2ccccc2)c1=c1[nH]/c(=C\c2cccs2)c(=O)o1	1	0
O=C(NCCO)c1c(O)c2c([nH]c1=O)CCCC2	5	4
CCCn1c(SCc2ccc3c(c2)OCO3)n[nH]c1=O	3	2
O=c1c(N=Nc2ccccc2O)c(-c2ccccc2)[nH]n1-c1ccc([N+](=O)[O-])cc1	-1	-8

Record cards, as listed above. Screens in order: NPYLR7 agonist, NPYLR7 agonist max-min
Results for Clc1ccc2c(c1)CCCN2Cc1nnnn1C1CC1 = -3, -7
Results for CC(C)Cc1nc(N2CCN(C(=O)COc3ccccc3)CC2)c2c(-c3cccc(C(F)(F)F)c3)noc2n1 = 15, 7
Results for COc1cc(OC)c(-c2nccn2-c2ccc3n[nH]nc3c2)cc1OC = 1, 1
Results for COCCN(CCC(=O)Nc1ccccc1)c1nc(-c2ccco2)nc2ccccc12 = -3, 6
Results for CC(C(=O)NCc1ccccc1F)N1CCN(c2nc3ccccc3s2)CC1 (centres undefined) = 11, 8
